High-throughput results: PubChem, National Center for Advancing Translational Sciences (NCATS)
HPGD block: inhibitors of human 15-hydroxyprostaglandin dehydrogenase (HPGD) | P15428 | purified HPGD, NADH fluorescence kinetic, PGE2 substrate | Potency, µM, without a hit: at the top dose activity change, negative = inhibition, usual class: inhibitors | 4.3% of 150,000 active | AID 894; active = well fitted inhibition curve with a large enough effect (not every such curve was filed as active); inconclusive = small, poorly fitted or top-dose-only effect, or another doubt; inactive = no such curve, though single readings can be large or run the other way;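 further: top concentration of the series not given in the record; plate controls included wells without enzyme; inactives centre near -10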
Target sequence (P15428 whole entry, looked up): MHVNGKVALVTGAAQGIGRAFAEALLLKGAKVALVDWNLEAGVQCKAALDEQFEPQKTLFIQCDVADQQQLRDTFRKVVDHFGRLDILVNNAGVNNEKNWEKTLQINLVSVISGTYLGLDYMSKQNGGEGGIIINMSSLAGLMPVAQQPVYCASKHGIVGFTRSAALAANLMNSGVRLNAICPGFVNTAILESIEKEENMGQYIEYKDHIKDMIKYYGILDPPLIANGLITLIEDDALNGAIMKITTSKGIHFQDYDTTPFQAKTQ
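NADH formation kinetics: reaction with 30 uM PGE2 and 1 mM NAD+ (final), 20 nM enzyme, Tris-HCl pH 8 with Tween 20, after 15 min compound preincubation at room temperature. Fluorescence change, last versus first of five reads.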
* marks the source's active call; other numbers are inactive results; ? = inconclusive; & = joins results of further samples. On the % scale 0 is the no-effect control and ±100 the full control effect; potency means the concentration at half of the fitted maximal effect.

HPGD block	structure
-1%	Cc1nc(NC2=NCN(Cc3ccco3)CN2)nc2ccccc12
-15%	O=C(CSc1nnc(Nc2ccccc2)s1)NN1C(=O)NC2(CCCCC2)C1=O
-9%	O=C(COc1cccc(Cl)c1)Nc1ccc(N2CCOCC2)cc1
-8%	CN(C)c1nc(C#N)nc(N2CCOCC2)n1
?	CCCCc1c(C)c(C#N)c2nc3ccccc3n2c1Cl
-20%	CCn1c(Cc2ccc(OC)cc2)nnc1SCC(=O)Nc1cccc(C(=O)OC)c1
-7%	O=C(COc1ncnc2c(Cl)cc(Cl)cc12)N1CCN(S(=O)(=O)c2ccccc2)CC1
-9%	O=[N+]([O-])c1ccc(COc2ccc(CNc3ccccc3)cc2)cc1
-15%	COc1ccc(N(C(=O)c2ccco2)C(C(=O)NC2CCCC2)c2cccs2)cc1OC (stereo unspecified)
-13%	Cc1ccc(NC(=O)c2ccc(S(=O)(=O)C(F)F)cc2)c(C)c1
20µM*	COc1ccc(C=O)cc1OS(=O)(=O)c1ccccc1[N+](=O)[O-]
2.5µM*	Cc1cccc(NC(=O)c2ccccc2NC(=O)C2CCCCC2)c1C
?	Cc1cc(=O)oc2ccc(OCC(=O)N(Cc3ccc(F)cc3)Cc3ccco3)cc12
-13%	CCOC(=O)C1C2C=CC3(CN(c4cccc(Cl)c4)C(=O)C13)O2 (stereo unspecified)
-7%	CN=C1SC(CC(=O)Nc2ccc(C(=O)O)cc2)C(=O)N1C (stereo unspecified)
-9%	COc1cc(/C=N/NC(=O)COc2ccccc2[N+](=O)[O-])ccc1OC(=O)c1ccco1
-5%	O=C(CSc1nc(Nc2ccccc2)nc(N2CCOCC2)n1)Nc1ccccc1Cl
-4%	O=C(CCSCCC(=O)NCC1CCCO1)NCC1CCCO1 (stereo unspecified)
-19%	COc1ccc(/C(N)=N/OC(=O)Cc2ccc(C)cc2)cc1
-28%	CCOC(=O)C1CCN(c2c(Nc3ccc4c(c3)OCCO4)c(=O)c2=O)CC1

Given with each value named: 4 of the compounds above
CN(C)c1nc(C#N)nc(N2CCOCC2)n1
  HPGD block: -8%
Cc1cc(=O)oc2ccc(OCC(=O)N(Cc3ccc(F)cc3)Cc3ccco3)cc12
  HPGD block: ?
CCOC(=O)C1C2C=CC3(CN(c4cccc(Cl)c4)C(=O)C13)O2 (stereo unspecified)
  HPGD block: -13%
COc1ccc(N(C(=O)c2ccco2)C(C(=O)NC2CCCC2)c2cccs2)cc1OC (stereo unspecified)
  HPGD block: -15%

The main list resumes, starting 4 compounds before the break.
HPGD block	structure
-5%	O=C(CSc1nc(Nc2ccccc2)nc(N2CCOCC2)n1)Nc1ccccc1Cl
-4%	O=C(CCSCCC(=O)NCC1CCCO1)NCC1CCCO1 (stereo unspecified)
-19%	COc1ccc(/C(N)=N/OC(=O)Cc2ccc(C)cc2)cc1
-28%	CCOC(=O)C1CCN(c2c(Nc3ccc4c(c3)OCCO4)c(=O)c2=O)CC1
-23%	Cc1cccc(/C=C(\c2nc3ccccc3[nH]2)S(=O)(=O)c2ccccc2)c1
0%	Cc1cccc(NC(=O)CN2CCC(NC(=O)C3CCCCC3)CC2)c1C
-28%	O=C(NS(=O)(=O)c1ccc2c(c1)OCCO2)c1ccccc1
-22%	COc1cc(C(=O)Nc2ccc(O)cc2)ccc1OC(C)=O
-16%	Cc1ccc(C)c(CSc2nnc(-c3cccs3)n2Cc2ccco2)c1
-7%	CN1C(=O)c2ccccc2Sc2ccc(NC(=O)N3CCCC3)cc21
-13%	COc1cc([N+](=O)[O-])ccc1NC(=O)C[n+]1cccc(C)c1
-3%	CCCNC(=O)C12CCC(C)(C(=O)C1Br)C2(C)C (stereo unspecified)
-20%	C/C(=N\NC(=O)c1cc(-c2ccc(C)s2)[nH]n1)c1ccco1
-15%	Cc1ccc2c(COn3nnc4ccc(S(=O)(=O)N(C)C)cc43)cc(=O)oc2c1C
-9%	O=C(Oc1ccnc2cc(Cl)ccc12)N1CCOCC1
-9%	C=C1C[C@@]23C[C@]1(O)CC[C@@H]2[C@]12C=C[C@@H](O)[C@](C)(C(=O)O1)[C@H]2[C@H]3C(=O)O
16µM*	CSc1ccc(Cl)c(C(=O)NC2CCCC2)c1
-6%	Cc1nnc(SCC(=O)N2CCc3ccccc3C2)s1
-23%	COc1ccc(N/N=C(/C#N)S(=O)(=O)c2nsc(C)c2C#N)cc1
-3%	CO[C@@H]1C=CO[C@]2(C)Oc3c(C)c(O)c4c(O)c(c(C=NN5CCN(C)CC5)c(O)c4c3C2=O)NC(=O)C(C)=CC=C[C@H](C)[C@H](O)[C@H](C)[C@H](O)[C@H](C)[C@H](OC(C)=O)[C@H]1C
?	N#Cc1cc(S(=O)(=O)c2ccccc2)c(N)[nH]c1=O
-13%	Cc1ccc(-c2noc(C3CCCN(C(=O)c4ccc(F)cc4F)C3)n2)cc1 (stereo unspecified)
-11%	CC(/C=N/Nc1nnc2c(n1)[nH]c1ccccc12)=C\c1ccco1
-2%	Cc1c(S(=O)(=O)Nc2cc(Cl)ccc2Cl)c(=O)n(C)c(=O)n1C
-5%	COc1ccc(CC(=O)NC2CCN(CC(=O)N3CCCc4ccccc43)CC2)cc1OC
-6%	COC(=O)c1nn(-c2ccccc2)c(=O)cc1Oc1ccc(Cl)cc1
-8%	N#CC1=C(N)N(c2ccc(F)cc2)C(=O)C1
-16%	C/C(=N/N=C/c1ccc(N(C)C)cc1)c1ccccc1
?	COc1ccc2c(C)cc(=O)oc2c1C
-10%	CCn1c(NCc2ccc(N(C)C)cc2)nc2ccccc21
18µM*	Cc1ccccc1/C(N)=N/OC(=O)N1c2ccccc2Sc2ccccc21
-17%	CCOC(=O)C1=C(C)N(c2ccc(C)cc2)C(=O)/C1=C\c1cccs1
-6%	CCOc1c(Cl)cc(C(=O)NCCN2CCCCC2)cc1Cl
-1%	CC(=O)NCC(=O)N(C)C(C(=O)Nc1ccc2c(c1)OCCO2)c1ccccc1 (stereo unspecified)
-8%	CN1CCCN(C(=O)/C=C/c2ccc(F)cc2)CC1
-10%	COc1cc(C2Nc3cc(Cl)c(S(N)(=O)=O)cc3S(=O)(=O)N2)cc(OC)c1OC (stereo unspecified)
-15%	CCOCCc1nnc(NC(=O)c2cc(OC)c(OC)c(OC)c2)s1
-5%	Cc1c(NC(=O)Cc2ccccc2)cccc1C(=O)NN1C(=O)c2ccccc2C1=O
-4%	O=C(Cn1cccc1C(=O)c1ccccc1)NCc1cccnc1
-9%	Cc1cc(NS(=O)(=O)c2ccc(Cl)cc2)nn1CC(=O)NCc1ccco1
-7%	CSCCC(NC(=O)c1cccc([N+](=O)[O-])c1)C(=O)O (stereo unspecified)
1.3µM*	COC(=O)c1ccc(-c2ccc(C(=O)N3CCCN(C)CC3)cc2)cc1
-12%	N#Cc1ccc(-c2csc(NNC(=O)c3ccccc3)n2)cc1
-28%	CCCCSc1nc(NCc2ccco2)c2c3c(sc2n1)COC(C)(C)C3
-14%	CC(=O)c1ccc(OCC(O)CN2CCN(CCN3C(=O)c4cccc5cccc(c45)C3=O)CC2)cc1 (stereo unspecified)
?	CCN1CCN(c2cc(SC(C)C)nc(-c3ccc(OC)cc3)n2)CC1
-11%	CC1(C)NC(=O)N(CCCCOc2ccc(Cl)cc2)C1=O
-7%	O=C(NCCNS(=O)(=O)c1ccccc1Cl)c1cc(OCC(F)(F)F)ccc1OCC(F)(F)F
-5%&3%	C[N+]12CCC(CC1)C(OC(=O)C(O)(c1ccccc1)c1ccccc1)C2 (stereo unspecified)
-4%	O=C(CSc1nc2ccc([N+](=O)[O-])cc2s1)c1ccc2ccccc2c1
?	COC(=O)c1cccc(S(=O)(=O)N(Cc2ccco2)Cc2cc3cc(OC)c(OC)cc3[nH]c2=O)c1
?	O=C(c1ccccc1)c1cc2ccc(O)cc2oc1=O
-6%	C[C@@]12CCC(O)C[C@H]1CCc1ccccc12 (stereo partly specified)
-2%	CC1CCCC(C)N1C(=O)Cn1c(=O)sc2ccccc21 (stereo unspecified)
-14%	COc1cccc(OCC(O)CN2CCN(c3ncccn3)CC2)c1 (stereo unspecified)
-14%	CCn1c(SC)nnc1-c1sc2cc(Cl)ccc2c1Cl
-6%	Cc1ccc(S(=O)(=O)O/N=C2\CCCc3ccccc32)cc1
-17%	Cc1cc(C)c2sc(NNC(=O)c3ccc(S(=O)(=O)N4CCc5ccccc5C4)cc3)nc2c1
-5%	C=C(C)CN1C(=O)C(O)(CC(=O)c2ccc3c(c2)OCCO3)c2ccccc21 (stereo unspecified)
-6%	Cc1ccc(Cn2nc(C)c(NC(=O)c3cc(C)no3)c2C)cc1
-7%	CC(=O)OC1CCC2(C)C3CC(=O)C4(C)C(CC5OC6(CCC(C)CO6)C(C)C54)C3CC[C@H]2C1 (stereo partly specified)
-11%	CSCCC(NC(=O)c1cccc([N+](=O)[O-])c1)c1nc2ccccc2[nH]1 (stereo unspecified)
?	COc1cc(OC)c2c(C)cc(=O)oc2c1
-2%	CC1CN(C(=O)CN2C(=O)NC3(CCCCCCC3)C2=O)CC(C)O1 (stereo unspecified)

Next part.
HPGD block	structure
-16%	COc1ccccc1NS(=O)(=O)c1ccc(O)c(C(N)=O)c1
-2%	COc1ccc(C2CC(c3ccc(Cl)cc3)n3nc(N)nc3N2)cc1 (stereo unspecified)
?	O=C(CCCOc1ccc(Cl)cc1Cl)N1CCN(c2ccccn2)CC1
-13%	CC(C)(C)c1nnc(N/N=C/c2cc(Br)ccc2O)n(N)c1=O
1%	O=C(OCC(=O)c1c[nH]c2ccccc12)c1ccc(Br)o1
-24%	O=C(N/N=C/c1c[nH]c2ccccc12)c1cc(-c2cccc3ccccc23)n[nH]1
?	N#Cc1c(N)n(CCc2ccc(F)cc2)c2nc3ccccc3nc12
-18%	COc1ccc(N2CCN(C(=O)CSc3nnc4c5cc(C)ccc5n(C)c4n3)CC2)cc1
?	O=C(O)c1cc2cc(F)ccc2[nH]1
-6%	O=C(/C=C1\SC(=O)N(CC(=O)Nc2ccc(F)cc2)C1=O)Nc1ccc(Cl)cc1
-27%	CCOCCCNC(=O)C1CCC(CNS(=O)(=O)c2ccc(Cl)cc2)CC1 (stereo unspecified)
?	COc1ccccc1-c1nc(C#N)c(N2CCN(c3cccc(Cl)c3)CC2)o1
0%	CC12CCC(C(=O)N(NC(=O)c3ccc(O)cc3)C1=O)C2(C)C (stereo unspecified)
-7%	COc1cccc(-c2nc(NC(C)C)c3ccccc3n2)c1O
-14%	CCc1ccc(NC(=O)C(NS(=O)(=O)c2cccc3nsnc23)c2ccccc2)cc1 (stereo unspecified)
?	Oc1ccccc1CNc1cnc2ccccc2c1
-26%	CCCCOC(=O)c1ccc(NC(=O)C(=O)NCC2CCCO2)cc1 (stereo unspecified)
?	COc1ccc(/C=C/C(O)=C2/C(=O)N(C)C3(C)CC2c2ccccc2O3)cc1 (stereo unspecified)
-6%	CC(=O)N1c2ccc3ccccc3c2C(C)CC12CCCCC2 (stereo unspecified)
-8%	Cc1[nH]nc(SCC(=O)NCc2ccc(Cl)cc2)c1[N+](=O)[O-]

HPGD block, entries above that show a hit
HPGD block	structure
20µM*	COc1ccc(C=O)cc1OS(=O)(=O)c1ccccc1[N+](=O)[O-]
2.5µM*	Cc1cccc(NC(=O)c2ccccc2NC(=O)C2CCCCC2)c1C
16µM*	CSc1ccc(Cl)c(C(=O)NC2CCCC2)c1
18µM*	Cc1ccccc1/C(N)=N/OC(=O)N1c2ccccc2Sc2ccccc21
1.3µM*	COC(=O)c1ccc(-c2ccc(C(=O)N3CCCN(C)CC3)cc2)cc1

Going on with the list:
HPGD block	structure
2%	COc1ccc(CNC(=O)/C=C/c2cc([N+](=O)[O-])ccc2OC(F)F)cc1OC
-3%	CC(=O)c1c(N2CCN(C)CC2)nc(=S)n(Cc2ccccc2)c1C
-2%	O=C(O)[C@H](C1NCCS1)N1Cc2ccccc2C1 (stereo partly specified)
0%	CCCCCC1CC(CC#CCN2CCOCC2)C(=O)O1 (stereo unspecified)
-28%	CC(=NCc1cccnc1)C1=C(O)c2ccccc2C1=O
-14%	COC(=O)CC1Oc2ccccc2N(Cc2ccccc2)C1=O (stereo unspecified)
?	CC(C)CN1C(=O)/C(=C/c2ccco2)NC1=S
-26%	O=C(CSc1ncn[nH]1)Nc1nnc(-c2ccccc2)s1
1%	COc1ccc(-c2nnn(CCC(=O)O)n2)cc1
-3%	O=C(/C(C=Nc1ccc(Br)cc1)=C(/O)c1ccco1)C(F)(F)F
-6%	Cn1cccc1C(=O)N1CCC[C@@]2(CCN(Cc3nccs3)C2)C1
-7%	FC(F)(F)c1ccccc1-c1ccc2ncnc(NC3CCNCC3)c2c1
?	Cc1nc2cc(N3CCCCC3)c(NC(=O)c3cccnc3)cc2c(=O)n1Cc1ccccc1
-20%	Cn1ccnc1SCC(=O)c1cc2ccccc2o1
?	COC(=O)c1cc(C#N)c(NCc2ccc(Cl)cc2Cl)nc1C
-4%	O=C(COC(=O)C1CC2C=CC1C2)NCc1ccco1 (stereo unspecified)
-5%	CC(=O)O[C@H]1CC[C@@]2(C)C(=CC[C@@H]3[C@@H]4CC[C@H](c5cc(C(F)(F)F)n(C(C)=O)n5)[C@]4(C)CC[C@@H]32)C1
-6%	O=C(O)CCC1COc2ccccc2O1 (stereo unspecified)
?	COC(=O)Cn1c(=NC(=O)c2ccc(OC)c(OC)c2)sc2cc(OC)ccc21
2%	O=S(=O)(c1ccc(OCC(O)CN2CCN(c3ccc(F)cc3)CC2)cc1)N1CCOCC1 (stereo unspecified)
-24%	CCc1ccc(NC(=O)C2(c3ccccc3)CC2(Cl)Cl)cc1 (stereo unspecified)

The list is partial. The share of hits here may be higher or lower than overall.
